ClpP mod = qHTS Assay for Activators of ClpP. ATP-dependent Clp protease proteolytic subunit (Bacillus subtilis (strain 168)), P80244. purified B. subtilis ClpP, FRET peptide cleavage, 20 min. Potency, µM (highest dose often 57.5 µM), inactives show at the highest dose activity change, negative = active. 1.9% of 340,000 active. AID 651965, 2013; active = well fitted falling curve with a large enough effect; inconclusive = small, poorly fitted or top-dose-only effect; inactive = no such curve, though single readings can be large or run the other way; also: potency is read from the fitted curve at half-maximal effect; the source files actives as falling curves though it sought activators and does not explain the sign; nearly all actives have a fitted effect of over 65% in size; many hits overshoot -100%
Target sequence (P80244 whole entry, looked up): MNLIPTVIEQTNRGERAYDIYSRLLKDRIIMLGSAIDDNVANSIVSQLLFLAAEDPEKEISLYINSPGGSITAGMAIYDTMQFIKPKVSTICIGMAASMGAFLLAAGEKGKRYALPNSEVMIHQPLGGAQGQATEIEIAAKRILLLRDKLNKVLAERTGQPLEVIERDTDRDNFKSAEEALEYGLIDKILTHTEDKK
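Buffer: 100 mM Tris/HCl pH8, 100 mM KCl, 0.05% low protease BSA, 2.5% glycerol, 0.01% Tween-20. ClpP 10 microg/mL final; 20 min RT; delta FRET normalized to ADEP and DMSO controls.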
gsp agonist = gsp mutant agonism; gsp mutant cells, cAMP HTRF, 30 min; control for the full effect not named in the record; Potency, µM (doses to about 76.9 µM), without a hit: at the highest dose activation (cAMP increase), most hits filed as activators; 0.13% of 340,000 active; AID 624287; active = well fitted activation curve with a large enough effect; inconclusive = small, poorly fitted or top-dose-only effect, or another doubt; inactive = no such curve, though single readings can be large or run the other way; cell line not stated here;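 also: phosphodiesterase inhibitor Ro 20-1724 added with compounds to block cAMP breakdown; potency is read from the fitted curve at half-maximal effect; nearly all actives have a fitted effect of over 60% in size; about a fifth of the inactives were tested at one dose only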
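Cells in DMEM/10% FBS with G418 were pretreated with compounds in DMSO plus […] (300 uM stock) for 30 min at 37C. cAMP was measured by HTRF (cAMP-d2 plus anti-cAMP antibody-K) after 30 min at room temperature.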
TRPV1 potentiator = enhances activation of the human vanilloid receptor TRPV1. Q8NER1. TRPV1-expressing cells, Fluo-8 calcium influx, capsaicin EC20 potentiation; host cell line not named in the record; control for the full effect not named in the record. potentiation, % at 8.33 µM. 0.02% of 320,000 active; active means potentiation above 80%; inconclusive means 30% to 80%; inactive means below 30%; also: 0% is about no effect
Target sequence (Q8NER1 whole entry, looked up): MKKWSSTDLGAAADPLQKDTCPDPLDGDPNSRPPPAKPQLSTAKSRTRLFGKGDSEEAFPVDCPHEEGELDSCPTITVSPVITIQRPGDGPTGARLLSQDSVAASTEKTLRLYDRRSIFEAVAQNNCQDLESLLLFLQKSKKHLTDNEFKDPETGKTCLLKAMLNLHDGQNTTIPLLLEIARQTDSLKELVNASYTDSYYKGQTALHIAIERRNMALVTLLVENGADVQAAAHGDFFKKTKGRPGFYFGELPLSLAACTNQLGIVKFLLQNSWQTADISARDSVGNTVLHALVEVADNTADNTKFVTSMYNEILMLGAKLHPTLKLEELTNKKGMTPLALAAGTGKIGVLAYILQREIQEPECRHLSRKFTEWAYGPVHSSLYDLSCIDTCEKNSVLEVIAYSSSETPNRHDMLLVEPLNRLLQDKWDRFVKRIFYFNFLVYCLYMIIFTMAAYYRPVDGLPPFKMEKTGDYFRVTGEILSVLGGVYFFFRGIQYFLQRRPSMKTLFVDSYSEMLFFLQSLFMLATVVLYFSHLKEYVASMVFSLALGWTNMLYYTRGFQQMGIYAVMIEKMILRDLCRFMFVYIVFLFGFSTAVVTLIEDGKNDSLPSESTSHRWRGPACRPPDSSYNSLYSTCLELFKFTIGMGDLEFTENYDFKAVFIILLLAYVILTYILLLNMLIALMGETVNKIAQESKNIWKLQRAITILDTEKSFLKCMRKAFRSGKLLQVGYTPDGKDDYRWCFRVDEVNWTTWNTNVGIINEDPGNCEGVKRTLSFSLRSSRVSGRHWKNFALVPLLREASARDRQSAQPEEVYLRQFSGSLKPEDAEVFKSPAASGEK
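Fluo-8 calcium influx in TRPV1-expressing cells, kinetic read (ex 480/em 520 nm). Compound added and read 3 min for agonist activity, followed by capsaicin at EC20 final and 2 min further read for enhancement.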
TRPML1 inh = inhibitors of human TRPML1 channel; AID 624415; Q9GZU1; activity change, negative = inhibition, % (test concentration not listed); 0.02% of 390,000 active; TRPML1-inducible cells, Ca2+ dye fluorescence, FDSS; active compounds read low; inhibition of EC80 agonist-evoked calcium signal; in the data active means activity change below about -50%; inconclusive means about -30% to -50%; inactive means above about -30%;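 also: stimulus is agonist 54-4 at its EC80 concentration; % is scaled to controls: 0 for no effect and ±100 for the full control effect; compound concentration not given in the record; the text of the record puts the active cut at -80%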
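TRPML1-DL cells, Tet-induced overnight (~16 h, 37 °C) at 1,500 cells/well, were loaded with Ca8 no-wash dye plus quencher for 45-90 min at room temperature. Compounds were pinned during FDSS kinetic reading; agonist 54-4 at EC80 (4 uM final) then added.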
Sfp inh = Sfp phosphopantetheinyl transferase inhibition; Q9F4F7; Biochemical Sfp PPTase activity, qHTS; Potency, µM, without a hit: max response, negative = inhibition, actives largely listed as inhibitors; 3.5% of 310,000 active; active = well fitted inhibition curve with a large enough effect; inconclusive = small, poorly fitted or top-dose-only effect, or another doubt; inactive = no such curve, though single readings can be large or run the other way;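 also: the enzyme is Sfp with the accession as filed and its product quenches rhodamine fluorescence; potency is read from the fitted curve at half-maximal effect; 0% = enzyme reaction without inhibitor and -100% = no enzyme wells; top concentration of the series not given in the record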
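Reaction rates are the 30-min fluorescence difference (ex 525, em 598 nm) in wells containing 15 nM Sfp, 5 uM rhodamine-CoA and 12.5 uM BHQ-2-YbbR at pH 7.6 with 10 mM MgCl2.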
Menin-MLL FL inh = displaces fluorescein MLL peptide from human menin | Fluorescence polarization, fluorescein-MLL peptide displacement from menin | 290,000 tested, under 10 active | FP activity change, % at 61.4 µM; inconclusive = falling polarisation curve, or a change in total fluorescence; inactive = total fluorescence flat and polarisation flat or rising; no compound was filed as active; the % refers to the polarisation; negative = inhibition;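 also: % of control where 0% means no effect; inhibitors lower the polarisation; unlabelled MLL peptide was the positive control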
gsp antagonist = antagonists of gsp mutant (McCune-Albright syndrome) | AID 624288 | 0.4% of 340,000 active | Potency, µM (titrated, usually from 76.9 µM), inactives show top-dose activity change, negative = inhibition, usual class: inhibitors | gsp-mutant cells, cAMP HTRF, 30 min; control for the full effect not named in the record; active = falling curve of any shape with a large fitted effect; inconclusive = falling curve, mostly with a smaller effect; inactive = flat or rising curve; cell line not stated here;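 also: intracellular cAMP measured with PDE inhibitor Ro 20-1724 present during compound exposure; potency is read from the fitted curve at half-maximal effect; % is scaled to controls: 0 for no effect and ±100 for the full control effect; nearly all actives have a fitted effect of over 65% in size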
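HTRF cAMP measurement after 30 min RT detection following 30 min, 37C compound treatment alongside […] (added as 300 uM solution) in G418-selected cells seeded at 2000/well and grown 16–24 h.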
* marks the source's active call; other numbers are inactive results; u = inconclusive; x = no result given; & = joins results of further samples; [ ] = another dose, or the depositor's remark.

SMILES | ClpP mod | gsp agonist | TRPV1 potentiator | TRPML1 inh | Sfp inh | Menin-MLL FL inh | gsp antagonist
CCCCN(CC)CCNC(=O)C1c2cc(OC)c(OC)cc2C(=O)N2CCc3ccccc3C12 (stereo not given) | -6.8% | 16% | -3 | 35 | 17% | 3.3 | 3%
Cc1cccc(N(CC(N)=O)C2SC(=O)N(c3ccccc3)C2=O)c1 (stereo not given) | 1.9% | 2% | 13 | 8 | -7% | -1.2 | 5%
Oc1ccc(Nc2nc(-c3ccc4ccccc4c3)cs2)cc1 | x | x | -4 | x | -9% | 2.9 | x
COc1ccccc1N1CCN(C(=O)c2cc3c(s2)CCC3)CC1 | -1.2% | u | u | -2 | u | 0.7 | -14%
C=CCNC(=S)NNC(=O)c1cc(O)ccc1O | x | 2% | 15 | -5 | 16% | 1.2 | -2%
COc1ccc2c(c1)c(CC(=O)OCC(=O)O)c(C)n2C(=O)c1ccc(Cl)cc1 | 3.1% | x | 14 | 2 | u | -2.5 | -30%
O=C(NCCCc1ccccc1)C(=O)c1c[nH]c2ccccc12 | -0.2% | 16% | -17 | 17 | 13% | x | -6%
O=C(CCCn1c(=O)oc2ccccc21)NC1CCCCCC1 | x | x | -13 | x | -4% | -1.0 | x
CC(=O)Nc1ccc(NS(=O)(=O)c2ccc(Cl)s2)cc1 | 0.1% | 21% | -8 | 5&-7 | 8% | 0.3 | -4%
NC(=O)c1ccc(C(=O)c2ccc([N+](=O)[O-])cc2)cc1 | 0.5% | -5% | -1 | -10 | 23% | 0.7 | 2%
CCn1cc(/C=C(\NC(=O)c2ccccc2)C(=O)N2CCOCC2)c2ccccc21 | 0.2% | -3% | 1 | -4 | 9% | -1.3 | u
CCOC(=O)C1CCCN(S(=O)(=O)c2ccc3c(c2)N(C)C(=O)CC(=O)N3C)C1 (stereo not given) | 0.0%&-1.9% | 15% | 9 | 6&5 | 4% | x | 5%
Oc1ccccc1Nc1ncnc2c1oc1ccccc12 | 1.4% | 14% | -12 | 9 | 6% | 2.9 | 3%
O=c1c2[nH]c3ccccc3c2ncn1C1CCCCC1 | u | u | -6 | -2 | 19% | -1.2 | 4%
CC1CCN(S(=O)(=O)c2ccc(C(=O)Nc3nnc(C4CC4)o3)cc2)CC1 | 1.6% | 17% | 10 | -10 | 10% | -0.1 | -16%
O=C(O)c1cn(-c2ccccc2)nc1C(=O)O | -16% | -25% | 23 | -12 | 24% | 0.4 | -5%
CC(C)NC(=O)NC(=O)COC(=O)c1ccc(S(=O)(=O)Nc2ccccc2)cc1 | -0.4% | u | 3 | -12 | 8% | -3.8 | -13%
Cc1cc(-n2c(C)cc(C(=O)CN3C(=O)C(=O)N(C)C3=O)c2C)no1 | -3.2% | 20% | x | -3 | x | x | -2%
C/C=C(\C)C(=O)OC1CC(C)(C)C[C@H]2C3=CC[C@@H]4[C@@]5(C)CCC(O[C@@H]6O[C@@H](C(=O)O)[C@@H](O)C(O[C@@H]7OC[C@H](O)[C@@H](O)[C@@H]7O[C@@H]7OC(CO)C(O)[C@@H](O)[C@@H]7O)C6O[C@@H]6OC(CO)C(O)C(O)C6O)[C@@](C)(CO)[C@@H]5CC[C@]4(C)[C@]3(C)CC(O)[C@@]12CO (stereo not given in full) | -1.2% | -6% | x | 11 | x | x | -18%
Cc1cccc(C)c1NC(=O)N1CCC(N2CCCCC2)CC1 | 0.6% | -20% | x | 13 | -4% | 2.2 | -6%
CC(=O)C1=C(O)C(=O)N(Cc2ccccc2)C1c1cccs1 (stereo not given) | -0.4% | -1% | 1 | 0 | 4% | 1.8 | -2%
Cc1cc(C)nc(NC(=O)CSc2nc3ccccc3s2)n1 | -1.9% | -30%[inhibitor] | 19 | -8 | 20% | -1.0 | 3%
O=C(c1ccccc1F)N1CCN(S(=O)(=O)c2ccc(Br)cc2)CC1 | 0.6% | 4% | 23 | 0 | 10% | x | -15%
COc1ccc(C(=O)NCC(=O)NCc2ccc3c(c2)OCO3)cc1[N+](=O)[O-] | -0.6% | -22% | x | -8 | x | x | x
CCOC(=O)C1=C(c2ccccc2)N=C2SCC(=O)N2C1c1ccc(OC)c(OC)c1 (stereo not given) | -5.8% | 2% | -3 | 2 | -9% | 2.6 | 5%
Cc1ccc(C(=O)N2CCSC2=S)cc1 | x | -34%[15.4 µM] | -6 | -3 | 15% | -0.7 | 8%
Cc1csc(N2C(=O)C3C4CCC(O4)C3C2=O)n1 (stereo not given) | -2.0% | -17% | x | 18 | x | x | 17%
Cc1ccc2nc(Nc3ccc(F)cc3)c3nncn3c2c1 | 4.1% | 21% | 3 | -2 | 1% | -1.0 | 4%
COc1ccc(NC(=O)Cn2c(=O)oc3cc(Cl)ccc32)c(OC)c1 | 0.8%&0.9% | 2% | 6 | 4&2 | 3% | 2.3 | -5%
O=C1[C@@H]2[C@H](C(=O)N1O)[C@H]1C=C[C@@H]2C1 | -2.3% | 1% | -6 | -1 | 12% | 5.7 | -3%
O=C(NNS(=O)(=O)c1ccc([N+](=O)[O-])cc1)c1ccc2ccccc2c1O | 12% | 10% | -14 | 16 | -11% | x | -2%
O=C1NC2(CCCCC2)NN1c1ccccc1 | -3.3% | 11% | 11 | 21 | 6% | 0.5 | -4%
COc1ccc(-n2c(C)c3c(C)nnc(C)c3c2C)cc1OC | u | 7% | x | 12 | x | x | x
N#CCCC1CCCC=C1N(Cc1ccccc1)C(=O)C(Cl)Cl (stereo not given) | x | -7%[15.4 µM] | u | 14 | 22% | -1.8 | -7%
Cc1ccc(OC(=O)CCC(=O)OCCCC(F)(F)C(F)(F)F)cc1 | 0.7% | -8% | -16 | 7 | 20% | 3.0 | 18%
O=C(NNC(=S)Nc1ccc(Cl)c(Cl)c1)c1ccccn1 | 2.1% | -21% | -7 | 13 | 7% | 1.3 | 6%
Oc1cc2c(cc1O)[C@@H](c1ccccc1)CNCC2 | 1.2% | x | 1 | 1 | 20µM* | -0.7 | -1%
COc1ccc(Cl)cc1NC(=O)Cn1c(NCCO)nc2ccccc21 | -2.0% | -4%[15.4 µM] | -5 | 14 | 9% | -2.0 | -5%
O=C(N/N=C/c1cccs1)c1c[nH]c2ccccc12 | -1.5% | -6% | -3 | -12 | 4% | 1.0 | -5%
CCOc1ccc(OCC)c(NC(=O)CSc2nc3c(c(=O)n(C)c(=O)n3C)n2CC)c1 | 0.6% | -14% | -8 | 0 | 15% | 2.7 | 0%
O=C(N/N=C/c1ccc[nH]1)c1ccncc1 | x | 22% | 11 | 18 | -4% | -0.9 | 8%
CNC(=O)CO/N=C/c1ccc(N(C)C)cc1 | x | -11% | -18 | 8 | 17% | 4.5 | -11%
COc1ccc(C(=O)NNC(=O)CSc2nc3c(c(=O)n(C)c(=O)n3C)n2C)cc1 | -0.6% | 9%[15.4 µM] | -5 | 8 | 2% | -1.7 | 9%
Cc1ccc(S(=O)(=O)N2CCCCCC2)cc1[N+](=O)[O-] | 0.4% | 1% | -15 | -5 | 10% | 2.8 | 0%
COc1ccc(OC)c(NC(=O)CSc2nc3ccccc3cc2Cc2ccccc2)c1 | -0.2% | -5% | 9 | -4 | 0% | 6.2 | 2%
COc1ccc(CCNC(=O)CCS(=O)(=O)c2cccc3nsnc23)cc1OC | 0.7% | u | 7 | 0 | -7% | -2.3 | 5%
COc1ccc(N2CCN(c3nc4c(c(=O)[nH]c(=O)n4C)n3Cc3cccc(C)c3)CC2)cc1 | -1.3% | 8% | 2 | -7 | -8% | 0.8 | 3%
O=C(NS(=O)(=O)Oc1cccc(Cl)c1Cl)OC[C@@H]1CCCN2CCCCC12 (stereo not given in full) | -0.6% | -12% | -2 | -27 | 18% | -1.3 | 3%
COCCOc1ccc(C(F)(F)F)cc1NC(=O)COC(=O)C12CC3CC(CC(O)(C3)C1)C2 | 1.1% | -27% | 0 | 5 | 5% | 2.4 | -1%
O=C(O)Cc1ccc(NC(=O)Cc2ccc3ccccc3c2)cc1 | x | u | 2 | -3 | 25% | 0.0 | 4%
CCc1ccc(NC(=O)CSCCN2C(=O)c3ccccc3C2=O)cc1 | 0.7% | -9% | -2 | 1 | 9% | 5.3 | -13%
COCCN(C(=O)c1sc2ccccc2c1Cl)c1c(N)n(CC(C)C)c(=O)[nH]c1=O | -0.3% | -5% | 8 | -6 | x | x | 4%
O=C(Nc1ccc(N2CCCC2)c(Cl)c1)c1ccc([N+](=O)[O-])cc1 | -0.3% | u | 2 | 22 | -2% | 2.4 | 4%
Cc1ccnc(NS(=O)(=O)c2ccc(NC(=O)CC(C)c3ccccc3)cc2)n1 (stereo not given) | x | -3%[15.4 µM] | 2 | 24 | 5% | 7.5 | -24%
c1ccc2c(c1)CN1CCCC1=N2 | x | -24%[15.4 µM] | -1 | -1 | 6%&6%&-16% | 1.0&2.1&-5.3 | 11%
C[C@H](CO)N1C[C@H](C)[C@@H](CN(C)Cc2ccc(C(=O)O)cc2)Oc2ncc(Br)cc2C1=O | 0.4% | 0% | x | -2 | x | x | x
Cc1ccc2c(c1)N(CCC(=O)NCC1CCCO1)C(=O)CO2 (stereo not given) | 3.2% | 1% | x | 1 | 1% | 0.9 | 8%
CC(C)NC(=O)c1ccccc1NC(=O)C1CCCO1 (stereo not given) | -3.7% | -25% | 9 | -3 | u | 4.2 | 6%
COc1cccc(NC(C)C(=O)N2CC(C)OC(C)C2)c1 (stereo not given) | -1.2% | -9% | 4 | 1 | 2% | -1.4 | 6%
NS(=O)(=O)c1ccc(NC(=O)COC(=O)c2ccc(S(=O)(=O)N3CCOCC3)cc2)cc1 | x | -41%[inhibitor] | x | 15 | x | x | 6%
O=C(NCc1ccccc1)c1ccc(/C=N/O)nc1 | 1.1% | -16% | 5 | -5 | -19% | -2.9 | 4%
Cc1cc(Cl)nc(NC(=O)Nc2cccc(Cl)c2)n1 | x | 17% | 27 | 11 | -3% | 1.8 | 6%

Compound activity deposited in PubChem BioAssay by National Center for Advancing Translational Sciences (NCATS).
